TRPML1 blocker = human mucolipin-1 channel inhibition; Q9GZU1; TRPML1-inducible cells, Ca2+ dye fluorescence, FDSS; stronger effect = lower value; inhibition of EC80 agonist-evoked calcium signal; activity change, negative = inhibition, % (no concentration beside the values); hit rate 0.02% among 390,000; in the data active means activity change below about -50%; inconclusive means about -30% to -50%; inactive means above about -30%;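 further: stimulus is agonist 54-4 at its EC80 concentration; on the % scale 0 is the no-effect control and ±100 the full control effect; compound concentration not given in the record; the text of the record puts the active cut at -80%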
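Tet-induced TRPML1-DL cells loaded with Ca8 no-wash calcium dye were read kinetically on FDSS. Compound addition was followed by EC80 agonist 54-4 (4 uM final); inhibition was read over 110 s.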
Six1-Eya2 inh = inhibitors of human Six1/Eya2 interaction | Q15475+O00167 | AlphaScreen GST-Six1/His-Eya2 binding, biochemical; stronger effect = lower value; control for the full effect not named in the record | activity change, % (no concentration beside the values) | hit rate 0.56% among 360,000; in the data active = activity change below about -65%; inconclusive = about -30% to -65%; inactive = above about -30%; further: on the % scale 0 is the no-effect control and ±100 the full control effect; compound concentration not given in the record
Target sequence (O00167 whole entry, looked up): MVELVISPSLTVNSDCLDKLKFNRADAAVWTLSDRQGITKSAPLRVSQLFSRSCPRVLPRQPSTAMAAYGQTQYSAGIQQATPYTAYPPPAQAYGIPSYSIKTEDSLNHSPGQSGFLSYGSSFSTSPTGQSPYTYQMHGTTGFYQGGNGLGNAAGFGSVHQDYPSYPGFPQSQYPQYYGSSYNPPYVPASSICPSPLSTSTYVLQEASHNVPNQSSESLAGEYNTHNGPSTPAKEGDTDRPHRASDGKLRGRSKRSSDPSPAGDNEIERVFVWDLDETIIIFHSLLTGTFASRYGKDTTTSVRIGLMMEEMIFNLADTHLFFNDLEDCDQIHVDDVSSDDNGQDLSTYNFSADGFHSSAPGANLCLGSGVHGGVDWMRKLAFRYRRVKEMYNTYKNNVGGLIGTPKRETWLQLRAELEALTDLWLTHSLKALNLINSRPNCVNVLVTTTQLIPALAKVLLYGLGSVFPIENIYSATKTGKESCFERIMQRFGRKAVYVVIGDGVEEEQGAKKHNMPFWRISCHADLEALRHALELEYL
Target sequence (Q15475 whole entry, looked up): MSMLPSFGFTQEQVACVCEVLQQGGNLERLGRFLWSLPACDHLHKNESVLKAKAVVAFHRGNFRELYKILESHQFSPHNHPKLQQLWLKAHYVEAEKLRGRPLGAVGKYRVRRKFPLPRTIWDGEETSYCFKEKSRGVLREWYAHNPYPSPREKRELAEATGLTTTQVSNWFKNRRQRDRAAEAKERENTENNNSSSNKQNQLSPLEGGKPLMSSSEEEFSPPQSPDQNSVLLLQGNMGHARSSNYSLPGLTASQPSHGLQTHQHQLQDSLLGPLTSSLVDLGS
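GST-Six1 + His-Eya2 (5X stock: 250/500 nM); Tris pH 8.0, 300 mM NaCl, 0.05% BSA, 0.02% Tween 20; GSH donor/Ni acceptor beads; 1 h 37 °C dark; AlphaScreen readout.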
D2 potentiator = positive allosteric modulators of human D2 dopamine receptor; P14416; DiscoveRx D2 beta-arrestin cells, luminescence, 90 min; 100% = 57 uM dopamine signal; hit rate 0.23% among 360,000; potentiation, % (no concentration beside the values); active = potentiation of 50% or more; inconclusive = 30% to 50%; inactive = 30% or less;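 further: compound concentration not given in the record; tested on top of an EC20 dose of dopamine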
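D2 cells co-treated with compound plus 50 nM dopamine (EC20) for 90 min at 37 deg C to detect potentiation. Beta-arrestin recruitment was read as enzyme-fragment luminescence after 1 h at ambient temperature. Full response was set by 57 uM dopamine.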
TRPML1 agonist = agonists of human TRPML1 channel | Q9GZU1 | TRPML1-expressing cells, Ca2+ dye fluorescence, FDSS; host cell line not named in the record; reference of the full effect not given here | activation, % (concentration not given with the values) | hit rate 0.12% among 410,000 | AID 624414; in the data active = activation above about 50%; inconclusive = about 30% to 50%; inactive = below about 30%; further: 0% is about no effect; the text of the record puts the active cut at 80%
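Cells: TRPML1-DL, 1X Tet inducer, ~16 h at 37 degrees C/5% CO2. Dye: ABD Ca8 no-wash + quencher, 45-90 min RT. Read: 10 s baseline, compound add, 110 s agonist phase; 54-4 EC80 (4uM final), 110 s antagonist phase.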
TRPV1 potentiator = potentiators of human vanilloid receptor 1 (TRPV1) | Q8NER1 | TRPV1-expressing cells, Fluo-8 calcium influx, capsaicin EC20 potentiation; host cell line not named in the record; control for the full effect not named in the record | potentiation, % at 8.33 µM | hit rate 0.02% among 320,000; active means potentiation above 80%; inconclusive means 30% to 80%; inactive means below 30%; further: 0% is about no effect
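Cells expressing TRPV1 were dye-loaded with Fluo-8 and read kinetically: 10 s baseline, 3 min after compound (agonist portion), then 2 min after EC20 capsaicin (allosteric enhancer portion). Calcium-bound dye fluorescence at 480/520 nm.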
CtBP-E1A blk = blocks the CtBP interaction with E1A | AlphaScreen GST-E1A/His-CtBP binding, 1536-well; stronger effect = lower value; control for the full effect not named in the record | activity change, % (concentration not given with the values) | hit rate 0.49% among 340,000 | AID 651724; in the data active means activity change below about -65%; inconclusive means about -30% to -65%; inactive means above about -30%; further: on the % scale 0 is the no-effect control and ±100 the full control effect
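In 5 uL wells, 23 nL compound meets equimolar GST-E1A and His-CtBP (5X stock 125 nM each) for 2 h, 37 °C. Beads (5X, 50 ug/mL) then 1 h, 37 °C, dark.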
* = called active by the depositor.

`O=C(CN1C(=O)NC2(CCCC2)C1=O)OCc1ccc(F)cc1` gave TRPML1 blocker -5, Six1-Eya2 inh 1, D2 potentiator 6, TRPML1 agonist 0.1, TRPV1 potentiator -3 and CtBP-E1A blk 8.
`CC(OC(=O)c1cccnc1Cl)C(=O)NCc1ccccc1` (stereo not given) gave TRPML1 blocker -8, Six1-Eya2 inh -2, D2 potentiator -1, TRPML1 agonist -0.7 and TRPV1 potentiator 1.
Screening CCOC(=O)C(Oc1ccc2c(-c3ccccc3)cc(=O)oc2c1C)c1ccccc1 (stereo not given) returned TRPML1 blocker 1, Six1-Eya2 inh 1, D2 potentiator -2, TRPML1 agonist -0.9, TRPV1 potentiator -8 and CtBP-E1A blk 12.
For Cn1cnc2nc[nH]c2c1=S the results were TRPML1 blocker -13, Six1-Eya2 inh 2, D2 potentiator -13, TRPML1 agonist 0.9 and CtBP-E1A blk -2.
Screening c1ccc(Cc2nc(-c3ccccn3)no2)cc1 returned TRPML1 blocker 17, Six1-Eya2 inh -2, D2 potentiator 0, TRPML1 agonist 1.3, TRPV1 potentiator -1 and CtBP-E1A blk 0.
For Cc1ccc(C)c(Nc2nc3c(S(=O)(=O)c4ccccc4)nnn3c3ccccc23)c1 the results were TRPML1 blocker 14, Six1-Eya2 inh 10, D2 potentiator -7, TRPML1 agonist 2.6, TRPV1 potentiator 19 and CtBP-E1A blk 1.
`C=C(C)CSc1nc(C)c(Cc2ccccc2)c(=O)[nH]1` gave TRPML1 blocker 6, Six1-Eya2 inh 4, D2 potentiator -7, TRPML1 agonist 0.7, TRPV1 potentiator -10 and CtBP-E1A blk 1.
`Cc1ccc2[nH]c(=O)c(CN(CC3CCCO3)S(=O)(=O)c3cccc4nsnc34)cc2c1` (stereo not given) gave TRPML1 blocker 14, Six1-Eya2 inh -1, D2 potentiator -2, TRPML1 agonist 0.1, TRPV1 potentiator 6 and CtBP-E1A blk -2.
`O=C(c1cccc2ccccc12)C1CCCN(C(=O)CCc2cnccn2)C1` (stereo not given) gave TRPML1 blocker 9, Six1-Eya2 inh -2, D2 potentiator -4, TRPML1 agonist -0.6, TRPV1 potentiator 17 and CtBP-E1A blk 3.
For O=C(COc1ccccc1)N=C1SC2CS(=O)(=O)CC2N1Cc1ccccc1 (stereo not given) the results were TRPML1 blocker -2, Six1-Eya2 inh 4, D2 potentiator 2, TRPML1 agonist 0.3 and TRPV1 potentiator -10.
C[C@H](CO)N1C[C@H](C)[C@H](CN(C)C(=O)c2ccncc2)OCc2cnnn2CCCC1=O was read as TRPML1 blocker -16, Six1-Eya2 inh -1, D2 potentiator 5, TRPML1 agonist -0.6 and CtBP-E1A blk -1.
O=C(CCC1CCCC1)Nc1cc(Cl)ccc1N1CCOCC1 was read as TRPML1 blocker -3, Six1-Eya2 inh 13, D2 potentiator -4, TRPML1 agonist -0.2, TRPV1 potentiator -8 and CtBP-E1A blk 11.

Structural class, those above containing a halogen
`O=C(CN1C(=O)NC2(CCCC2)C1=O)OCc1ccc(F)cc1` gave TRPML1 blocker -5, Six1-Eya2 inh 1, D2 potentiator 6, TRPML1 agonist 0.1, TRPV1 potentiator -3 and CtBP-E1A blk 8.
`CC(OC(=O)c1cccnc1Cl)C(=O)NCc1ccccc1` (stereo not given) gave TRPML1 blocker -8, Six1-Eya2 inh -2, D2 potentiator -1, TRPML1 agonist -0.7 and TRPV1 potentiator 1.
O=C(CCC1CCCC1)Nc1cc(Cl)ccc1N1CCOCC1 was read as TRPML1 blocker -3, Six1-Eya2 inh 13, D2 potentiator -4, TRPML1 agonist -0.2, TRPV1 potentiator -8 and CtBP-E1A blk 11.

(listing goes on)
Screening O=C(CCCN=C1NS(=O)(=O)c2ccccc21)OCc1cc([N+](=O)[O-])cc2c1OCOC2 returned TRPML1 blocker -6, Six1-Eya2 inh 1, D2 potentiator -19, TRPML1 agonist 1.0 and TRPV1 potentiator 10.
`CC(C)Cn1c(SCC(=O)N2CCCc3ccccc32)nc2ccccc2c1=O` gave TRPML1 blocker 8, Six1-Eya2 inh 2, D2 potentiator 2, TRPML1 agonist 1.8, TRPV1 potentiator 4 and CtBP-E1A blk 2.
`Cc1cc(C(=O)c2ccc3ccccc3c2)c(C)o1` gave TRPML1 blocker 0, Six1-Eya2 inh 13, D2 potentiator 2, TRPML1 agonist 3.4 and CtBP-E1A blk 8.
Screening O=[N+]([O-])c1ccccc1N/N=C/c1ccccc1 returned Six1-Eya2 inh -5, D2 potentiator 23 and TRPV1 potentiator 8.
Cc1ccc(S(=O)(=O)N(C)c2ccc(OCC(=O)OCc3ccc(C#N)cc3)cc2)cc1 was read as TRPML1 blocker -5, Six1-Eya2 inh 5, D2 potentiator -15, TRPML1 agonist 3.0 and CtBP-E1A blk 13.
`Cc1ccc(Nc2nc3c([nH]2)c(=O)n(C)c(=O)n3C)cc1` gave TRPML1 blocker 2, Six1-Eya2 inh -12, D2 potentiator 16, TRPML1 agonist 0.2, TRPV1 potentiator -13 and CtBP-E1A blk -11.
For CCc1nnc(NC(=O)CN2CCN(Cc3ccc(C)cc3)CC2)s1 the results were TRPML1 blocker 6, Six1-Eya2 inh 3, D2 potentiator -5, TRPML1 agonist 0.6, TRPV1 potentiator -3 and CtBP-E1A blk -10.
`COc1nccnc1NS(=O)(=O)c1ccc(NC(=S)NC(=O)c2ccc(F)c(F)c2)cc1` gave TRPML1 blocker -13, Six1-Eya2 inh -8, D2 potentiator 4, TRPML1 agonist 1.9, TRPV1 potentiator -20 and CtBP-E1A blk -2.
CCOC(=O)Nc1c(Cl)n(C)c(=O)n(C)c1=O was read as TRPML1 blocker -12, Six1-Eya2 inh -2, D2 potentiator -24, TRPML1 agonist -0.4 and TRPV1 potentiator 30.
For Cc1c(C(=O)N2CC(C)OC(C)C2)[nH]c2ccc(Br)cc12 (stereo not given) the results were TRPML1 blocker 26, Six1-Eya2 inh 6, D2 potentiator -6, TRPML1 agonist 1.5, TRPV1 potentiator 1 and CtBP-E1A blk 3.
`CC(=O)c1sc(NC(=O)c2cc(-c3ccccc3)nn2-c2ccccc2)nc1C` gave TRPML1 blocker 22, Six1-Eya2 inh -6, D2 potentiator -5, TRPML1 agonist 0.8, TRPV1 potentiator 9 and CtBP-E1A blk 4.
CCC1CCCCN1C(=O)c1cccc(S(=O)(=O)Nc2cc(C(F)(F)F)ccc2Cl)c1 (stereo not given) was read as TRPML1 blocker -7, Six1-Eya2 inh -1, D2 potentiator 6, TRPML1 agonist 0.5, TRPV1 potentiator -12 and CtBP-E1A blk 3.
For Cn1nc(C(F)(F)F)c2cc(C(=O)Nc3ccc(F)c(Cl)c3)sc21 the results were TRPML1 blocker 8, Six1-Eya2 inh 12, D2 potentiator -12, TRPML1 agonist 1.0, TRPV1 potentiator -13 and CtBP-E1A blk 1.
For O=C(O)[C@@H](c1ccccc1)N1Cc2ccccc2C1=O the results were TRPML1 blocker -7, Six1-Eya2 inh 4, D2 potentiator -10, TRPML1 agonist 0.0 and CtBP-E1A blk -12.
`Cc1ccc(C)c(CN2C(=O)CSc3ccc(C(=O)N4CCCC4)cc32)c1` gave TRPML1 blocker 11, Six1-Eya2 inh 12, D2 potentiator -4, TRPML1 agonist 4.1, TRPV1 potentiator -21 and CtBP-E1A blk 0.
Screening COc1nnc(-c2ccc(N3CCOCC3)c(NC(=O)c3ccco3)c2)c2ccccc12 returned TRPML1 blocker 24, Six1-Eya2 inh -6, D2 potentiator -20, TRPML1 agonist -0.3 and CtBP-E1A blk 2.
For Cn1c(=O)c2c(nc(NCCOc3ccc(C(C)(C)C)cc3)n2C)n(C)c1=O the results were TRPML1 blocker 12, Six1-Eya2 inh 2, D2 potentiator -5, TRPML1 agonist -0.5, TRPV1 potentiator 11 and CtBP-E1A blk -6.
Screening CN(Cc1ccccn1)Cc1nc(Cc2ccccc2Cl)no1 returned TRPML1 blocker 2, Six1-Eya2 inh 15, D2 potentiator -2, TRPML1 agonist 0.7, TRPV1 potentiator -9 and CtBP-E1A blk 1.
For O=C(OCc1csc(-c2ccccc2)n1)c1ccccc1O the results were TRPML1 blocker 1, Six1-Eya2 inh 9, D2 potentiator 3, TRPML1 agonist 1.4, TRPV1 potentiator -9 and CtBP-E1A blk -1.
Screening COc1cc2[nH]c(C(=O)NCC3CCCO3)cc2c(OC)c1OC (stereo not given) returned TRPML1 blocker -16, Six1-Eya2 inh 2, D2 potentiator -24, TRPML1 agonist -0.3, TRPV1 potentiator 5 and CtBP-E1A blk 2.
For O=C1NC(=O)/C(=C\c2ccc(Cl)nc2)S1 the results were TRPML1 blocker 30, Six1-Eya2 inh -6, D2 potentiator -13, TRPML1 agonist -0.1 and TRPV1 potentiator 16.
`Cc1ccc(NC(=S)NNC(=O)c2cn(C)nc2C)cc1` gave TRPML1 blocker -12, Six1-Eya2 inh 7, D2 potentiator -19, TRPML1 agonist -0.5, TRPV1 potentiator -6 and CtBP-E1A blk -1.
Screening Cc1ccc(NC(=O)c2ccccc2NC(=O)CCC(=O)O)cc1 returned TRPML1 blocker -21, Six1-Eya2 inh -2, D2 potentiator -16, TRPML1 agonist 1.9, TRPV1 potentiator 12 and CtBP-E1A blk 1.
For Cc1ccc(C(=O)Nc2c(C#N)c(C)c(C)n2Cc2ccccc2)cc1 the results were TRPML1 blocker -4, Six1-Eya2 inh -9, D2 potentiator -17, TRPML1 agonist 0.5, TRPV1 potentiator 13 and CtBP-E1A blk -3.
CCOC(=O)c1ccc(NC(=O)c2cccc(C)c2[N+](=O)[O-])cc1 was read as TRPML1 blocker 21, Six1-Eya2 inh 5, D2 potentiator -8, TRPML1 agonist 3.2, TRPV1 potentiator -18 and CtBP-E1A blk 1.
Screening CCOCCCNC(=O)C(c1ccc(Cl)cc1)N(Cc1ccc2c(c1)OCO2)C(=O)CNC(C)=O (stereo not given) returned TRPML1 blocker -3, Six1-Eya2 inh -3, D2 potentiator -12, TRPML1 agonist 0.6, TRPV1 potentiator 2 and CtBP-E1A blk 6.
For COc1ccc(CCNC(=O)CS(=O)(=O)Cc2nc(-c3ccc(C)cc3)oc2C)cc1OC the results were TRPML1 blocker -20, Six1-Eya2 inh -5, D2 potentiator -6, TRPML1 agonist -0.2, TRPV1 potentiator 3 and CtBP-E1A blk -5.
For O=C(CSc1nnnn1-c1ccccc1)Nc1ncc(Cc2ccccc2Cl)s1 the results were TRPML1 blocker -5, Six1-Eya2 inh 10, D2 potentiator 13, TRPML1 agonist -0.7, TRPV1 potentiator 0 and CtBP-E1A blk -2.
Screening CC(=O)c1c(C)[nH]c(C(=O)OC(C)C(=O)Nc2cc(S(=O)(=O)N3CCCCC3)ccc2Cl)c1C (stereo not given) returned TRPML1 blocker 13, Six1-Eya2 inh 4, D2 potentiator -6, TRPML1 agonist 0.6, TRPV1 potentiator 2 and CtBP-E1A blk -6.
For CCOc1ccc(NC(=O)CCS(=O)(=O)c2ccc3c(c2)CCCN3C(=O)CC)cc1 the results were TRPML1 blocker 0, Six1-Eya2 inh -1, D2 potentiator -9, TRPML1 agonist 1.8, TRPV1 potentiator 7 and CtBP-E1A blk 1.
For CC1(C)OC(=O)C(=NNc2ccc(Br)cc2)C(=O)O1 the results were TRPML1 blocker 5, Six1-Eya2 inh -12, D2 potentiator -27, TRPML1 agonist -0.3, TRPV1 potentiator -15 and CtBP-E1A blk -6.

Screens: PubChem BioAssay, National Center for Advancing Translational Sciences (NCATS)
